# FEN1 inh: human FEN1 inhibition. Potency, µM (doses to about 114 µM), for the others: at the highest dose activity change, negative = inhibition, actives largely listed as inhibitors. P39748. 390,000 compounds, 0.35% hits. Recombinant FEN1 flap cleavage, fluorescence, 15 min. AID 588795; note: nearly all actives have a fitted effect of over 65% in size
# Target sequence (P39748 whole entry, looked up): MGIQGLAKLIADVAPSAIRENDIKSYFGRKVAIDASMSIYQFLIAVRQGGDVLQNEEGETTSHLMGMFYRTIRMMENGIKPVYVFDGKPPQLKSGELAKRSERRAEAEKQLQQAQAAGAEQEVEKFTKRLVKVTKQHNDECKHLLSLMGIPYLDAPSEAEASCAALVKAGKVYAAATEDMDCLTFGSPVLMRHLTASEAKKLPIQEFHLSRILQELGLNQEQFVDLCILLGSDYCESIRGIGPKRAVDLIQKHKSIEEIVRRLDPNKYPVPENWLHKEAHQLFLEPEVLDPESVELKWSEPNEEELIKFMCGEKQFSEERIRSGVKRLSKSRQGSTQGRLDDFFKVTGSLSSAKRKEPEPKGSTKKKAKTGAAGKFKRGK
#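 Steps: FEN1 (10 nM) dispensed; compound added by pin tool; 15 min at room temperature; substrate added to 50 nM final; reads at 0 min and 15 min; data normalized and fitted (four-parameter Hill).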
# GCN5L2 inh: inhibitors of human GCN5L2 histone acetyltransferase; Potency, µM (titrated, usually from 58.9 µM), without a hit: top-dose activity change, negative = inhibition, hits mostly inhibitors; 390,000 compounds, 0.21% hits; Q92830; GCN5L2 HAT assay, ThioGlo1 CoA-SH fluorescence
#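 GCN5L2 (20 nM) in 50mM HEPES pH 7.5, 0.1mM EDTA, 0.01% Tween-20 preincubated 15 min with compounds at room temperature. Reaction started with H3(1-25) 75uM, acetyl-CoA 70uM, ThioGlo1 50uM; CoA-thiol fluorescence (Ex340/Em540) read at 0 and 20 min.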
# An asterisk follows results filed as active; ? = inconclusive; . = no result given; & = joins results of further samples; [ ] = remark or other dose. Calls come from the whole dose curve; as a rule, active = well fitted curve in the direction sought with a large enough effect; inconclusive = small, poorly fitted or top-dose-only effect, or another doubt; inactive = no such curve, though single readings can be large; an effect the other way counts as inactive or inconclusive. % is set by controls: 0 for no effect and ±100 for the full control effect; potency is the fitted concentration of half-maximal effect.
SMILES,FEN1 inh,GCN5L2 inh
Cc1cc2occ(CC(=O)N(C)CC(=O)Nc3ccccc3Cl)c2cc1C,-13%,-22%
COc1cc([N+](=O)[O-])ccc1NC(=O)/C=C/C(=O)O,-8%,-13%
CO[C@@]1(NC(=O)Cc2cccs2)C(=O)N2C(C(=O)O)=C(COC(N)=O)CS[C@@H]21,-1%,-3%
COC(=O)[C@@H](NC(=O)N(C1CCCCC1)C1CCCCC1)C(C)C,-1%,41%[activator]
O=C(Nc1cccc(C(=O)N2CCOCC2)c1)c1cncc(Br)c1,-4%,.
CCN(CC)c1ccc(S(=O)(=O)N2CCCCC2)cc1NC(=O)C1CCC1,10%,?
CCOCCOC(NC(=O)c1ccccc1)(C(F)(F)F)C(F)(F)F,-9%,29%
CCOC(=O)/C(C#N)=C(\O)c1ccc(NC(=O)c2ccc([N+](=O)[O-])cc2)cc1,12%,-3%
Cc1ccc(C)c(N2CCN(C(=O)CCC(=O)Nc3nnc(C(F)(F)F)s3)CC2)c1,8%,-20%
COc1cc(NC(=O)COC(=O)/C=C/c2c(C)nn(C3CCS(=O)(=O)C3)c2Cl)cc(OC)c1OC (stereo not drawn),10%,-2%
Cc1c(C(=O)N/N=C/c2cccnc2)sc(=S)n1C,3%,-10%
CCS(=O)(=O)N1CCC(C(=O)NCc2ccc(OC)cc2OC)CC1,3%,-1%
O=c1c2ccccc2cnn1-c1ccc(Br)cc1,-6%,-11%
Cc1ccc(N2C(=O)[C@@H]3C(c4cccnc4)=NO[C@@H]3C2=O)c(C)c1,-1%,2%
O=C(CSc1nnc(-c2ccccn2)o1)Nc1ccccc1,1%,-1%
COC(C[C@@H]1O[C@H]1[C@@H](O)[C@@H](C)OCc1ccccc1)OC,-9%,-15%
CCOC(=O)N1CCC(NC(=O)CCc2ccccc2)CC1,8%,-9%
CCOC(=O)C[N+](CC)(CC)CC#Cc1ccccc1,-9%,-4%
O=C(CN(C(=O)CNC(=O)c1ccco1)c1ccc(F)cc1)NC1CCCC1,2%,-1%
COC(=O)CCCC1=CC2=C(c3ccccc3)C(=O)C(C)(OC(=O)C3CCCC3)C(=O)C2=CN1CCN1CCOCC1 (stereo not drawn),5%,-15%

# A draw from above in order of count of non-hydrogen atoms, smallest number first:
SMILES,FEN1 inh,GCN5L2 inh
Cc1c(C(=O)N/N=C/c2cccnc2)sc(=S)n1C,3%,-10%
CCOC(=O)N1CCC(NC(=O)CCc2ccccc2)CC1,8%,-9%
CCS(=O)(=O)N1CCC(C(=O)NCc2ccc(OC)cc2OC)CC1,3%,-1%

# The list continues:
SMILES,FEN1 inh,GCN5L2 inh
C=CCNC(=O)c1ccc(N(C)S(=O)(=O)c2ccc(OC)cc2)cc1,-6%,2%
O=C(Oc1cccc2c(OC(=O)N3CCCC3)cccc12)N1CCCC1,5%,3%
COc1ccc2[nH]c(C(=O)NCCN3CCCCC3)cc2c1,9%,-16%
COc1ccc(/C=N/NC(=O)Nc2cccc3nsnc23)c(OC)c1,6%,-3%
COc1cc(C(=O)Nc2ccc3c(c2)Cc2ccccc2-3)cc(OC)c1OC,-10%,-2%
O=C(O)c1ccc(-c2ccccc2)[nH]1,-16%,0%
COc1ccc(CCNC(=O)Cn2nnc(-c3ccccc3F)n2)cc1OC,0%,0%
Cn1nccc1C(=O)Nc1ccc(OC(=O)c2ccnn2C)cc1,-2%,-4%
COc1ccc(C(=O)CSc2n[nH]c(-c3ccncc3)n2)cc1[N+](=O)[O-],1%,2%
O=C(NCc1ccco1)c1cnn2c1NC(c1ccccc1)CC2C(F)(F)F (stereo not drawn),-2%,-5%
Cc1nc(SCC(=O)NCc2ccccc2)c2oc3ccccc3c2n1,-9%,3%
N/C(Cn1cncn1)=N\NC(=O)C(=O)Nc1ccccc1,-13%,0%
COc1ccc(N2CC(C(=O)N[C@@H](C)C(=O)NC(C)c3ccccc3)CC2=O)cc1 (stereo partly drawn),-2%,-2%
COc1ccccc1NC(=O)c1ccc(S(=O)(=O)N2CCCC2)cc1,-5%,-8%
NCCC(=O)NCCc1cnc[nH]1,-3%,2%
CC(=O)N1CCCc2cc(S(=O)(=O)N3CCCC(C(=O)NCc4ccccc4Cl)C3)ccc21 (stereo not drawn),-15%&-2%,-3%&-7%
CCCC(=O)Nc1ccc(NC(=O)c2ccco2)cn1,1%,-2%
CCC(=O)NCCCc1nc2ccccc2n1Cc1ccccc1F,-2%,1%
Clc1ccc(-c2ccc(SCc3ccccn3)nn2)cc1,-7%,37%[activator]
CC(=O)Cn1cnc2scc(-c3ccc(C)c(C)c3)c2c1=O,10%,-1%

# Retrieved by structure from the list above:
SMILES,FEN1 inh,GCN5L2 inh
COc1ccc(/C=N/NC(=O)Nc2cccc3nsnc23)c(OC)c1,6%,-3%
Clc1ccc(-c2ccc(SCc3ccccn3)nn2)cc1,-7%,37%[activator]
COc1ccc(N2CC(C(=O)N[C@@H](C)C(=O)NC(C)c3ccccc3)CC2=O)cc1 (stereo partly drawn),-2%,-2%
CC(=O)N1CCCc2cc(S(=O)(=O)N3CCCC(C(=O)NCc4ccccc4Cl)C3)ccc21 (stereo not drawn),-15%&-2%,-3%&-7%
COc1ccc2[nH]c(C(=O)NCCN3CCCCC3)cc2c1,9%,-16%
NCCC(=O)NCCc1cnc[nH]1,-3%,2%

# Returning to the listing, repeating the three entries before the break.
SMILES,FEN1 inh,GCN5L2 inh
CCC(=O)NCCCc1nc2ccccc2n1Cc1ccccc1F,-2%,1%
Clc1ccc(-c2ccc(SCc3ccccn3)nn2)cc1,-7%,37%[activator]
CC(=O)Cn1cnc2scc(-c3ccc(C)c(C)c3)c2c1=O,10%,-1%
C/[N+]([O-])=C\C1C(=O)CC(C)(C)CC1=O,2%,-6%
N/C(=N\OC(=O)c1ccc2c(c1)OCO2)c1ccc([N+](=O)[O-])cc1,-6%,-4%
S=C(NCCNCc1ccccc1)NC1CCCCC1,.,-4%
O=C(c1cccc(S(=O)(=O)N2CCOCC2)c1)N1CCCC1,-1%,-12%
COc1ccc(CCNC(=O)CCn2c(=O)c3ccccc3n(CC(=O)NCC3CCCO3)c2=O)cc1OC (stereo not drawn),0%,-4%
CCOC(=O)c1cc(S(=O)(=O)NC2CCC(C)CC2)cn1C (stereo not drawn),14%,-6%
Cc1cccc(Nc2c([N+](=O)[O-])cc(C(=O)N3CC(=O)Nc4ccccc43)cc2[N+](=O)[O-])c1,-19%,-3%
COc1ccc(C(C)=O)cc1COc1ccc(F)cc1,-9%,-7%
O=C(Cc1ccccc1Cl)Nc1cccc(S(=O)(=O)N2CCOCC2)c1,4%,0%
COc1ccc(NC(=O)CCN2CCN(S(=O)(=O)c3ccc(F)cc3)CC2)cc1,19%,-1%
Cc1nc(N2CCN(C(=O)CCC(=O)O)CC2)c2c(C)c(C)sc2n1,8%,3%
CCOc1ccc(NC(=O)Nc2cc(C(C)C)ccc2C)cc1,.,-1%
O=C(Nc1cc(C(=O)N2CCN(c3ccccc3O)CC2)ccc1Cl)c1cccs1,-4%,-3%
O=C(N/C(=C\c1ccco1)C(=O)N1CCCC1)c1ccccc1,-4%,-2%
COc1ccc(-c2noc(N3CCC(C(=O)NCc4ccc(F)cc4)CC3)n2)cc1,3%,22%
CCCCC(c1nnnn1CC1CCCO1)N1CCN(Cc2ccccc2)CC1 (stereo not drawn),-3%,-2%
COc1ccc(C2CC(c3ccccc3)=NN2C(=O)CN2CCN(Cc3ccccc3)CC2)cc1 (stereo not drawn),-8%,-4%
COc1ccc(-c2noc(CN3C(=O)c4ccccc4C3=O)n2)cc1,-1%,1%
COc1cc(-c2onc3ccc(Br)cc23)cc(OC)c1OC,-11%,-5%
CCc1cc(OCCOCCN(C)C)ccc1Cl,13%,-4%
C/C(=N\NC(=O)CSc1nc2ccccc2c(=O)n1-c1ccccc1C)c1cccs1,0%,-5%
CCOC(=O)N1CCN(c2nc3ccc(C(=O)c4ccccc4)cc3n3cnnc23)CC1,11%,-3%
Cc1ccc(C(c2nnnn2CS(=O)(=O)c2ccc(C)cc2)N2CCN(c3ncccn3)CC2)cc1 (stereo not drawn),-4%,-18%
CCCc1cc(=O)oc2cc(C)cc(OC(C)C(=O)NCc3cccnc3)c12 (stereo not drawn),-22%,-8%
CC(=O)OCC(=O)C1CCC2C3CC=C4CC(O)CC[C@@]4(C)C3CC[C@]12C (stereo partly drawn),.,-4%
COc1ccc(COC(=O)Nc2c(SC)nsc2SC)cc1,16%,1%
Brc1ccc(-c2nnc3n2CCCCC3)cc1,-6%,-9%[0.501 µM]
Cc1ccc2[nH]c(C)c(CCNC(=O)C3CCCCC3C(=O)OCC(F)(F)F)c2c1 (stereo not drawn),-9%,-3%
O=C1CC(NS(=O)(=O)c2cccnc2)CN1c1ccc(F)cc1 (stereo not drawn),4%,3%
COc1ccc(N(CC(=O)NCC2CCCO2)C(=O)CCC(=O)Nc2nccs2)c(OC)c1 (stereo not drawn),0%,-5%
CCOC(=O)c1ccc(NC(=O)NC(C)C2CCCO2)cc1 (stereo not drawn),-8%,-1%
Cc1cc(C)c(NC(=O)COC(=O)CCc2ccc(S(=O)(=O)N3CCCCC3)cc2)c(C)c1,51%,2%
CC(=O)Oc1ccc(/C=N/NS(=O)(=O)c2ccccc2)cc1,-4%,2%
Cc1cccc(NC(=O)c2c(O)c3ccccc3n(C)c2=O)c1,10%,1%
CN(CCO)c1cc(NCCCN2CCC(Cc3ccccc3)CC2)c2nonc2c1[N+](=O)[O-],-4%,-2%
Cc1ccc(C(c2nnnn2C(C)(C)C)N2CCC(C)CC2)cc1 (stereo not drawn),-19%,-6%
Cc1nn(-c2ccccc2)c(Cl)c1/C=N/NC(=O)OC(C)(C)C,-16%,-3%
Cc1cc2nc(-c3ccco3)cc(C(F)(F)F)n2n1,20%,-2%
COc1ccccc1NC(=O)C1CCN(S(C)(=O)=O)CC1,-8%,-9%
N#C/C=C1\n2c(nc3ccccc32)OC12CCCCC2,-4%,-1%

# Complete entries from above.
# COc1ccc(COC(=O)Nc2c(SC)nsc2SC)cc1 is entered as FEN1 inh: 16%; GCN5L2 inh: 1%
# CCOC(=O)c1ccc(NC(=O)NC(C)C2CCCO2)cc1 (stereo not drawn) is entered as FEN1 inh: -8%; GCN5L2 inh: -1%
# Cc1nn(-c2ccccc2)c(Cl)c1/C=N/NC(=O)OC(C)(C)C is entered as FEN1 inh: -16%; GCN5L2 inh: -3%

# Continuation:
SMILES,FEN1 inh,GCN5L2 inh
Cc1ccc(NC(=S)NCC2CCCO2)c(OC(F)F)c1 (stereo not drawn),-8%,28%
Cc1c(Br)c([N+](=O)[O-])nn1CC(=O)c1ccccc1,0%,-5%
O=C(c1ccc(N2CCN(CCO)CC2)nc1)N1CCOCC1,-4%,-4%
COc1ccc(CC(=O)Nc2ccc(S(=O)(=O)Nc3cc(OC)nc(OC)n3)cc2)cc1,1%,-25%
COc1ccccc1NC(=O)CCCC(=O)OCC(F)(F)C(F)F,-4%,-4%
CCCNc1nc(C)cc(-c2cc(C(=O)NCc3ccccc3)on2)n1,-7%,19%
Cc1cccc(OCCCC(=O)Nc2ccc(S(=O)(=O)N3CCCC3)cc2)c1,-15%,0%
O=C1CCC([N+](=O)[O-])C(c2ccc(Br)cc2)N1 (stereo not drawn),0%,-1%
C/C(=N\NC1=NCCN1)c1ccc(N)c([N+](=O)[O-])c1,?,-11%

# The list is partial; most or all hits stand in other tables.
